Assay outcomes deposited in PubChem BioAssay by National Center for Advancing Translational Sciences (NCATS).
Six1-Eya2 blk: inhibitors of human Six1/Eya2 interaction | Q15475+O00167 | AlphaScreen GST-Six1/His-Eya2 binding, biochemical; stronger effect = lower value; control for the full effect not named in the record | activity change, % (test concentration not listed) | 360,000 tested, 0.56% active | AID 651725; in the data active = activity change below about -65%; inconclusive = about -30% to -65%; inactive = above about -30%; note: % is set by controls: 0 for no effect and ±100 for the full control effect; compound concentration not given in the record
Target sequence (O00167 whole entry, looked up): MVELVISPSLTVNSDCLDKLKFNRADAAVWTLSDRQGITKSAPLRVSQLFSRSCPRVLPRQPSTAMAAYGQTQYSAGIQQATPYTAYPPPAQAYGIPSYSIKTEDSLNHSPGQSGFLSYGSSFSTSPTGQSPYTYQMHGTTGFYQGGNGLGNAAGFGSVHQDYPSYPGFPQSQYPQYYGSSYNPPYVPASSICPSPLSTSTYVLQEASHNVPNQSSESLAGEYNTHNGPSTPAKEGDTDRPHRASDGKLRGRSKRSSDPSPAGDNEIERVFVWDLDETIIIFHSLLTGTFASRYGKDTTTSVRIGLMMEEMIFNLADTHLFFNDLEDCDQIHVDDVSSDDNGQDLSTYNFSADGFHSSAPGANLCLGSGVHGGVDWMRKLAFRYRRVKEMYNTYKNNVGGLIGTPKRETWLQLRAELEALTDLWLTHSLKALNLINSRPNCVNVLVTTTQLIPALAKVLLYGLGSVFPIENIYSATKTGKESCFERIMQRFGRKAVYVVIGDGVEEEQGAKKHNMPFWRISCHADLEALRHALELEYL
Target sequence (Q15475 whole entry, looked up): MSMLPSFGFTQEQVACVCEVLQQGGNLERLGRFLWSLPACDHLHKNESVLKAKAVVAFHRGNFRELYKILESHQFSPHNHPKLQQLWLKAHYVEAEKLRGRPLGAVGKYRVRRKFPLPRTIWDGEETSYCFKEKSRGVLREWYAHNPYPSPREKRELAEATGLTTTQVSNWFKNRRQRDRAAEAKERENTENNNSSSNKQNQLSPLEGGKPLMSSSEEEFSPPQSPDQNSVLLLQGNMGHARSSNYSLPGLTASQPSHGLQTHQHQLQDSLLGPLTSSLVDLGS
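AlphaScreen luminescence read after one hour at 37 °C in darkness. Pin-transferred compounds met GST-Six1 and His-Eya2 protein (5X stock 250 nM/500 nM) plus glutathione donor and Ni-chelate acceptor beads (5X, 50 ug/mL).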
gsp ag: agonists of gsp mutant (McCune-Albright syndrome); gsp mutant cells, cAMP HTRF, 30 min; control for the full effect not named in the record; Potency, µM (titrated, usually from 76.9 µM), without a hit: top-dose activation (cAMP increase), usual class: activators; 340,000 tested, 0.13% active; active = well fitted activation curve with a large enough effect; inconclusive = small, poorly fitted or top-dose-only effect, or another doubt; inactive = no such curve, though single readings can be large or run the other way; cell line not stated here;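 note: phosphodiesterase inhibitor Ro 20-1724 added with compounds to block cAMP breakdown; potency is the fitted concentration of half-maximal effect; nearly all actives have a fitted effect of over 60% in size; about a fifth of the inactives were tested at one dose only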
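Cells in DMEM/10% FBS with G418 were pretreated with compounds in DMSO plus […] (300 uM stock) for 30 min at 37C. cAMP was measured by HTRF (cAMP-d2 plus anti-cAMP antibody-K) after 30 min at room temperature.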
D2 agonist: human D2 receptor agonism in beta-arrestin assay; DiscoveRx PathHunter D2 beta-arrestin, luminescence, 90 min; 100% = 57 uM dopamine signal; activation, % (concentration not given with the values); 360,000 tested, 0.084% active; AID 624465; in the data active = activation above about 40%; inconclusive = about 15% to 40%; inactive = below about 15%; note: compound concentration not given in the record; the text of the record calls up to 30% inactive
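Agonist mode: compounds alone added to overnight-plated D2 PathHunter cells for 90 min at 37 C, with 57 uM final dopamine (EC100) defining full response. Beta-arrestin recruitment detected by chemiluminescent reagent, read after 1 h at ambient temperature.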
gsp antagonist: antagonists of gsp mutant (McCune-Albright syndrome); gsp-mutant cells, cAMP HTRF, 30 min; control for the full effect not named in the record; Potency, µM (titrated, usually from 76.9 µM), for inactives: at the highest dose activity change, negative = inhibition, usual class: inhibitors; 340,000 tested, 0.4% active; active = falling curve of any shape with a large fitted effect; inconclusive = falling curve, mostly with a smaller effect; inactive = flat or rising curve; cell line not stated here;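 note: intracellular cAMP measured with PDE inhibitor Ro 20-1724 present during compound exposure; potency is the fitted concentration of half-maximal effect; % is set by controls: 0 for no effect and ±100 for the full control effect; nearly all actives have a fitted effect of over 65% in size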
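G418-selected cells were plated in DMEM/10% FBS for 16-24 h at 37C, then treated with compounds plus the PDE inhibitor […] (300 uM solution added) for 30 min at 37C. Intracellular cAMP was measured by HTRF after 30 min lysis at room temperature.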
CtBP-E1A blk: CtBP/E1A binding inhibition; AlphaScreen GST-E1A/His-CtBP binding, 1536-well; stronger effect = lower value; control for the full effect not named in the record; 340,000 tested, 0.49% active; activity change, % (concentration not given with the values); in the data active means activity change below about -65%; inconclusive means about -30% to -65%; inactive means above about -30%; note: % is set by controls: 0 for no effect and ±100 for the full control effect
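Steps: dispense buffer (Tris pH 8.0, NaCl 300 mM, TCEP 1 mM, BSA, Tween 20); add 5X protein mix (GST-E1A, His-CtBP, 125 nM each); pin 23 nL compound; 2 h at 37 °C, dark; add 5X beads (50 ug/mL); 1 h; read.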
D2 potentiator: human D2 receptor positive allosteric modulation; P14416; DiscoveRx D2 beta-arrestin cells, luminescence, 90 min; 100% = 57 uM dopamine signal; potentiation, % (test concentration not listed); 360,000 tested, 0.23% active; active = potentiation of 50% or more; inconclusive = 30% to 50%; inactive = 30% or less;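 note: compound concentration not given in the record; tested on top of an EC20 dose of dopamine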
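PathHunter beta-arrestin assay in DiscoveRx D2 cells. Compounds were added with an EC20 of dopamine (50 nM final) for 90 min at 37 deg C. Luminescence was read 1 h after detection reagent, with 57 uM dopamine as the EC100 control.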
The depositor's hits bear a star; ? = inconclusive; nt = not tested or not shown; [ ] = another dose, or the depositor's remark.

no.	canonical_smiles	Six1-Eya2 blk	gsp ag	D2 agonist	gsp antagonist	CtBP-E1A blk	D2 potentiator
1	Cc1cc(NC(=O)COC(=O)c2ccc(S(=O)(=O)N3CCCC3)cc2)no1	2	4%	4.3	-4%	7	-6
2	N=c1c2ccccc2nnn1-c1ccccc1[N+](=O)[O-]	-6	-6%	4.7	-2%	-10	7
3	COc1cc(/C=N/n2nnnc2N)cc(Cl)c1OC	-5	?	2.0	4%	-1	-1
4	CCOC(=O)c1ccc(NS(=O)(=O)c2ccc(-c3coc(C)n3)cc2)cc1	2	4%	-1.1	1%	2	-26
5	COc1cccc(Oc2ccc(OC)cc2C(=O)O)c1	2	21%	-3.3	-13%	6	-9
6	CSC(=O)CC(=O)NC(=O)c1ccccc1	-1	-14%	-2.9	7%	1	-8
7	O=C(O)CC12CC3CC(C1)CC(n1cncn1)(C3)C2	6	0%[15.4 µM]	-2.7	13%	3	-3
8	Cc1ccc(CONS(=O)(=O)c2cc(C)ccc2C)cc1	-10	24%	2.7	6%	-3	-4
9	O=C(NCc1ccccc1)c1ccc(-c2cn[nH]c2)c2ccoc12	?	nt	2.9	nt	-1	-8
10	O=C(CCCOc1ccc(Cl)cc1)Nc1nncs1	9	2%	-0.5	1%	-6	-12
11	O=C(Nc1cccnc1)/C(N=Nc1ccc(Cl)c(C(F)(F)F)c1)=C(\O)c1ccccc1	7	-9%[15.4 µM]	-3.0	5%	6	-11
12	CC1CCCCN1S(=O)(=O)c1ccc2c(c1)CCN2C(=O)CCC(=O)O (stereo not given)	-1	-9%	-0.5	0%	0	-9
13	Cc1c(NP(=O)(Oc2ccccc2F)Oc2ccccc2F)c(=O)n(-c2ccccc2)n1C	-1	13%[15.4 µM]	0.7	-8%	3	-1
14	C=CCC(=O)N1CCCC(CO)(Cc2ccc(F)cc2F)C1 (stereo not given)	5	-1%	-0.9	1%	-3	-5
15	O=C1CC(N2CCOCC2)=NN1c1ccc([N+](=O)[O-])cc1	27	-12%[15.4 µM]	-5.0	-9%	0	-17

(next part)
no.	canonical_smiles	Six1-Eya2 blk	gsp ag	D2 agonist	gsp antagonist	CtBP-E1A blk	D2 potentiator
16	O=C(NCC1CCN(S(=O)(=O)c2ccccc2)CC1)Nc1ccccc1	-1	-1%[15.4 µM]	1.8	5%	0	-6
17	CN1CCN(S(=O)(=O)c2ccc(N(C)Cc3ccc(C(F)(F)F)cc3)c([N+](=O)[O-])c2)CC1	?	13%[15.4 µM]	-3.4	3%	-14	-31
18	Cc1ccc(S(=O)(=O)NCC(=O)OCC(=O)NC2CCCCC2)cc1	7	?	-0.8	2%	-4	-1
19	CCOC(=O)C1=C(O)/C(=C\c2cc(C)n(-c3ccc(F)cc3)c2C)N=C1C	-1	14%[15.4 µM]	-4.0	-11%	0	-9
20	COC(=O)c1cc2oc3ccccc3c2n1CC(=O)N1CCCc2ccccc21	-3	-14%	-1.1	-7%	-11	-2
21	CCOC(=O)C(C)n1nc(-c2ccccc2)c2ccccc2c1=O (stereo not given)	-2	-21%	-2.2	-20%	10	-8
22	Nc1c2c(nc3c1CCCC3)CCCC2 (tested in a mixture with another compound)	-1	-3%	2.9	11%	-14	-9
23	O=C(Nc1ccc([N+](=O)[O-])cc1)OCCc1ccccn1	1	4%	-3.3	-3%	nt	-6
24	COc1cc2c3c(c1)C1(C(=O)N3C(C)(C)C=C2C)C(C#N)=C(N)Oc2cc(O)ccc21 (stereo not given)	-11	4%	-4.9	7%	-25	1
25	O=C(CN1/C(=C(/O)c2ccccc2)C(=O)c2ccccc2S1(=O)=O)c1ccccc1	22	-22%	-0.6	?	-1	1
26	CCN(CC(=O)Nc1ccc(NC(C)=O)cc1)C(=O)c1cccnc1Sc1ccc(C)c(C)c1	-29	2%	0.2	-3%	0	0
27	COc1cc2oc(=O)ccc2cc1[C@@H](O)[C@@H]1OC(C)(C)OC1(C)C	7	nt	-3.7	8%	0	-2
28	CC(C)Nc1ncnc2c1cnn2Cc1ccccc1Cl	7	-26%	2.8	1%	nt	-9
29	[O-]/[N+](=N\Nc1ccc(Cl)cc1)c1ccccc1	-2	8%	-1.6	6%	-2	-7
30	COc1cc(/C=C/C(C)=NNc2ccccc2)ccc1O	-11	9%	5.1	-8%	-9	-2

Along the list, quoted from above.
Nos. 21–28 in D2 potentiator: -8, -9, -6, 1, 1, 0, -2, -9
Nos. 21–28 in D2 agonist: -2.2, 2.9, -3.3, -4.9, -0.6, 0.2, -3.7, 2.8

(cont.)
no.	canonical_smiles	Six1-Eya2 blk	gsp ag	D2 agonist	gsp antagonist	CtBP-E1A blk	D2 potentiator
31	CCOCCn1c(CN2CCCCC2)nc2c1c(=O)n(C)c(=O)n2C	0	-12%	-0.3	4%	6	1
32	O=C(/C=C/c1ccco1)Nc1ccc(N2CCCC2)cc1	-7	-13%	0.0	-2%	-27	-17
33	Cc1ccc(C(=O)CC(=O)COc2ccc(Cl)cc2)cc1	30	13%[15.4 µM]	0.1	-9%	9	-10
34	Cc1cc(C)c2cc(CN(Cc3nnnn3Cc3ccc(F)cc3)C3CCCC3)c(=O)[nH]c2c1	-1	?	-2.3	9%	-2	-14
35	O=C1CSC(=Nc2ccc(Cl)cc2)N1Cc1cccnc1	5	7%[15.4 µM]	0.9	1%	3	-5
36	Cc1ccc(Oc2ccc(S(=O)(=O)Nc3ccc(C(=O)O)cc3)cc2)cc1	4	-30%	-0.1	-11%	6	-1
37	Cc1cccc2cc(CN(Cc3ccco3)C(=O)c3ccncc3)c(=O)[nH]c12	19	23%	-1.1	7%	0	13
38	CCOC(=O)C1=C(C)NC(C)=C(C(=O)OCC)C1c1ccc(C)o1	-13	0%	-2.1	-5%	-27	-8
39	C=CCOc1ccc(CNc2nccs2)cc1	-9	-10%	0.2	14%	-2	-8
40	Cc1nc(SCC(=O)c2ccccc2)c(C#N)c(-c2ccco2)c1C(=O)NCc1ccco1	-18	11%	-1.8	-14%	-16	12
41	c1ccc2c(c1)CCc1c-2nc2ccccc2c1N1CCOCC1	19	3%	-3.8	?	nt	-16
42	C=Cc1ccc(Cn2c(C)c(C(=O)NCc3ccc(Cl)c(Cl)c3)sc2=O)cc1	-4	nt	9.5	nt	4	-2
43	CCCCC1=CC2=CC(=O)C(C)(OC(=O)CC)C(=O)C2=CN1CCOC (stereo not given)	-7	-56%[inhibitor]	?	4%	-2	7
44	Nn1c(-c2ccccn2)nnc1-c1ccccn1	-23	-38%[inhibitor]	4.2	0%	-22	6
45	COc1ccc(N2C(=NC(=O)c3ccccc3)SC3CS(=O)(=O)CC32)cc1 (stereo not given)	-1	16%	-3.1	-10%	0	-3

Next part:
no.	canonical_smiles	Six1-Eya2 blk	gsp ag	D2 agonist	gsp antagonist	CtBP-E1A blk	D2 potentiator
46	CC(C)NC(=O)c1ccccc1NC(=O)/C=C/c1ccc([N+](=O)[O-])cc1	3	-36%[inhibitor]	-2.2	2%	3	7
47	CC(Sc1nncn1C)C(=O)Nc1nnc(-c2ccccc2)s1 (stereo not given)	6	-41%[inhibitor]	0.1	-13%	1	0
48	COc1ccc(NC(=O)CC2C(=O)N(c3ccc(F)cc3)C(=S)N2NC(=O)c2ccccc2)cc1 (stereo not given)	3	10%	-0.2	-6%	7	-2
49	CCOc1ccccc1NC(=O)C1CCCN(C(=O)NCc2ccccc2)C1 (stereo not given)	4	?	-2.8	0%	-3	-14
50	COc1cccc(OC)c1C(=O)NC(=S)NNC(=O)[C@H]1C[C@@H]1c1ccccc1	-1	-24%	-2.6	2%	10	-2
51	O=C(Nc1ccccc1O)c1cc(S(=O)(=O)N2CCOCC2)ccc1Cl	10	-8%	1.8	10%	-2	1
52	COc1cc(CNc2ccc(N3CCOCC3)cc2)ccc1OCC(=O)NC(C)(C)C	-3	6%	?	-30%	nt	3
53	CCNC(=O)C(=O)NCC1OCCCN1S(=O)(=O)c1cccs1 (stereo not given)	1	-24%	-1.8	6%	-4	-3
54	COc1ccc(C(=O)Nc2c(-c3cccs3)c(=O)c3ccccc3n2C)cc1	3	11%	-2.6	2%	-4	-14
55	O=C(NCCc1ccc(F)cc1)Nc1ccc2c(c1)OCO2	-2	?	-6.2	0%	6	-5
56	COc1ccc(NS(=O)(=O)c2ccc(OCC(=O)N3CCOCC3)cc2)cc1	1	12%	-0.3	1%	-1	7
57	Cc1ccc(S(=O)(=O)N2CCOCC2)cc1NC(=O)C1CC(=O)N(c2ccc3c(c2)OCCO3)C1 (stereo not given)	2	14%	-1.8	-5%	-4	-13
58	CCc1ccccc1NC(=O)C1CCCN1C(=O)Nc1ccc(C)cc1 (stereo not given)	7	16%[15.4 µM]	-5.2	9%	15	-9
59	Nc1nc(N)nc(-c2ccccc2O)n1	0	16%	-0.6	9%	-12	-6
60	Cc1ccc(C2=NN(C(=O)CCC(=O)O)C(c3cccs3)C2)cc1 (stereo not given)	0	0%	-5.6	-25%	2	-9

Other compounds follow:
no.	canonical_smiles	Six1-Eya2 blk	gsp ag	D2 agonist	gsp antagonist	CtBP-E1A blk	D2 potentiator
61	COc1ccc(Cc2nnc(-c3ccc(F)cc3)o2)cc1OC	-15	10%	-5.7	-5%	0	-6
62	COc1ccccc1OCC(=O)N/N=C1/SCC(=O)N1Cc1ccccc1	4	10%	-0.1	0%	7	-3
63	CCOc1ccc(OCCSc2nc3ccccc3n2CC(=O)O)cc1	0	13%	-1.4	2%	nt	?
64	COc1ccccc1/C=C/C=N/NC(=O)CCn1nnc2ccccc21	-1	-30%	1.7	-9%	-6	3
65	Cc1ccc(C(=O)NCCNC(=O)c2cccnc2)cc1	-3	-1%	-3.1	13%	3	-4
66	Cc1nn(C)cc1C(N)=O	5	9%	-5.0	2%	2	5
67	O=C1NC(c2cccs2)Nc2ccccc21 (stereo not given)	-20	0%	-3.5	7%	-8	-23
68	CCC(C)(O)c1[nH]c2ccc(C(F)(F)F)cc2c1C (stereo not given)	2	nt	1.2	-9%	3	0
69	O=C(Nc1nnc(-c2ccncc2)s1)C1CCCO1 (stereo not given)	-3	-25%	-1.8	-20%	-2	-21

Record cards (already shown):
Record of COc1ccccc1/C=C/C=N/NC(=O)CCn1nnc2ccccc21 : Six1-Eya2 blk: -1; gsp ag: -30%; D2 agonist: 1.7; gsp antagonist: -9%; CtBP-E1A blk: -6; D2 potentiator: 3
Record of CCC(C)(O)c1[nH]c2ccc(C(F)(F)F)cc2c1C (stereo not given) : Six1-Eya2 blk: 2; gsp ag: nt; D2 agonist: 1.2; gsp antagonist: -9%; CtBP-E1A blk: 3; D2 potentiator: 0
